AID504770 = E. coli YBA685 growth inhibition, screen for V. cholerae RctB inhibitors | E. coli YBA685 rctB-dependent plasmid, OD600 growth, 3 h; stronger effect = lower value | z-score (test concentration not listed) | actives 0.27% (n = 130,000) | AID 504770;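 active = z-score under -2 on both plates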;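 also: wells of about 30 µL received 100 nL stock; score is relative to mean and SD of the test wells; the first replicate is given; strong numbers were not always called active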
Ba CapD inh = inhibitors of Bacillus anthracis CapD enzyme; z-score (concentration not given with the values); actives 0.23% (n = 140,000); purified CapD enzyme, fluorescence intensity read-out; stronger effect = lower value; some hits fall short of the stated cut;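 active = z-score under -4 in either of two replicates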;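 also: stock transfer was 100 nL into about 40 µL; score is relative to mean and spread of the plate; one replicate is shown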
An asterisk follows results filed as active; x = not tested or not shown; & = joins results of further samples.

smiles	Ba CapD inh	AID504770
Cc1ccc(O)c(CNc2cccc3cccnc23)c1	x	0
Cc1ccc(CNC(=O)c2cc(C)nn2-c2ccccc2)cc1	0.11	-0.25
O=C(c1cccc(S(=O)(=O)NC2CCCCCC2)c1)N1CCCc2ccccc21	-0.46	-0.6
COc1cc(C2C(C#N)=C(SCC(N)=O)NC3=C2C(=O)CCC3)ccc1O (stereo not given)	-0.61	-0.05
CCC(Sc1nc2ncccc2o1)C(=O)Nc1ccc(OC)c(Cl)c1 (stereo not given)	-0.88	0.05
S=c1nc2sccn2c2ncccc12	9.5	x
COc1ccc(N2CCN(c3nc(Nc4ccc(NC(C)=O)cc4)nc(N4CCOCC4)n3)CC2)cc1	-0.69	x
Cc1ccc(NC(=O)C2CCC(C)(C(=O)NN)C2(C)C)cc1 (stereo not given)	x	0.4
CCc1ccc(NC(=O)Cn2cnc(SCc3ccccc3)n2)cc1	-0.17	x
CCOC(=O)c1ccc(N=c2oc3ccccc3cc2C(=O)Nc2ccc(F)cc2)cc1	-1.6	x

Next section.
smiles	Ba CapD inh	AID504770
Cc1c(/C=N/OC(=O)c2ccc(Cl)cc2)c(=O)n(-c2ccccc2)n1C	0.21	x
CS(=O)(=O)c1ccc(S(=O)(=O)N2CCN(c3ccccc3F)CC2)cc1	-0.29	x
CCOC(=O)CC1=C(C(=O)OCC)C2(C(=O)N(C)c3ccccc32)C(C#N)=C(N)O1 (stereo not given)	x	-0.15
CN(C)/C=C/C=C1C(=O)CCCC1=O	-0.57	1.5
O=C(NCCCn1ccnc1)c1cc(=O)c2ccccc2o1	-0.31	0.05
CC(C)n1c(C(F)(F)F)nc2cc(C(=O)Nc3ccc(Cl)cc3)ccc21	4.1	-0.5
COC(=O)N(C)c1ccc(C(O)(C(F)(F)F)C(F)(F)F)cc1	0.72	-0.6
Cc1ccc(C)c(S(=O)(=O)Nc2ccc3oc4c(c3c2)C(=O)CC(C)(C)C4)c1	0.17	x
COc1ccc(C2SCC(=O)N2CCCN(C)C)cc1OC (stereo not given)	-0.68	-0.6
Cn1cc(SCC(=O)Nc2nccs2)c2ccccc21	-0.23	-1.1

Additional compounds
smiles	Ba CapD inh	AID504770
CC(C)n1nnc2c(=O)oc3ccccc3c21	5.7	-0.1
CSc1nc(NC(=O)NS(=O)(=O)c2ccccc2C(F)(F)F)nc(-c2ccccn2)n1	-0.27	0.05
CC(C)CC(NS(C)(=O)=O)C(=O)O (stereo not given)	x	-0.25
CC(C)(C)C(C(Oc1ccc(Cl)cc1)n1cncn1)n1nnnc1C(c1ccc(Cl)cc1Cl)N1CCCCC1 (stereo not given)	-0.2	x
O=C(CN1C(=O)C2C3C=CC(C3)C2C1=O)Nc1cc(C(F)(F)F)cc(C(F)(F)F)c1 (stereo not given)	-0.085	x
CN(C)S(=O)(=O)c1ccc(Cl)c(C(=O)OCC(N)=O)c1	x	1.5
O=C(CSc1nc(-c2ccccc2)cc(=O)[nH]1)NC1CCCC1	1.3	0.9
CC1=NN(C(=O)C(F)(F)F)C(O)(c2cccc(Br)c2)C1 (stereo not given)	-0.55	x
CCCC(=O)NCc1cn2cccc(C)c2n1	-0.38	1.5
Cc1cc(C)c(S(=O)(=O)c2ccccc2C)c(OCCN2CCOCC2)n1	-0.17	x

(next part)
smiles	Ba CapD inh	AID504770
CCCCN(CCCC)CCNC(=O)OCCN1CCN(Cc2cc3ccccc3o2)CC1	-0.3	x
COc1cc(C(=O)Oc2ccc3c(OC)c4ccoc4nc3c2OC)cc(OC)c1OC	0.79	x
C=CCn1ccn(-c2cccc3ccccc23)c(=O)c1=O	x	3.1
O=C(NCCCN1CCCC1)c1cnn(-c2ccccc2)c1-n1cccc1	11	-0.8
CC(C)(C)S(=O)(=O)/C(C#N)=C/c1sccc1C1OCCO1	-1.3	1.3
CCOC(=O)c1cc(NC(=O)CSCC(=O)O)ccc1N1CCCCC1	-2.4	-0.65
Cc1cc(C)c(C#N)c(SC(=O)c2c(F)cccc2F)n1	1.4	x
CCCOC(=O)C(C)Oc1ccc2c3c(c(=O)oc2c1)CCC3 (stereo not given)	29	-0.2
O=C1CSCC(=O)N1c1ccc(F)c(Cl)c1	-0.69	x
O=C(/C=C(\O)c1ccccc1)C(F)(F)C(F)F	-1.9	-3.5*

The results go on.
smiles	Ba CapD inh	AID504770
O=S(=O)(Nc1cc(F)ccc1F)c1ccc(-n2cccn2)cc1	0.045	0
C=CCc1c(C)nc(N2CCSCC2)[nH]c1=O	-0.96	0.75
CC1=C(C)C(=O)c2ccccc2C1=O	-0.26	-0.8
CC(C)c1ccc(S(=O)(=O)N2CCC(C(=O)Nc3nnc(-c4ccccc4)o3)CC2)cc1	x	-0.85
O=C(Nc1cccnc1)c1ccc(COc2ccccc2Cl)o1	0.22	-2.1
NS(=O)(=O)c1cc(C(=O)Nc2ccccc2N2CCOCC2)ccc1Cl	x	0.3
COc1ccc(OC)c(CN2CCCCC2COC(=O)NCCc2c[nH]c3ccc(C)cc23)c1 (stereo not given)	-0.1	x
CCCn1c(C(O)c2cc(OC)c(OC)c(OC)c2)nc2ccccc21 (stereo not given)	x	-0.9
Cc1cccc(/C=N/NC(=O)c2ccc([N+](=O)[O-])cc2Cl)n1	-0.79	x
O=C(CCCCCN1C(=O)c2ccccc2C1=O)Nc1nc2c(ncn2C2OC(CO)C(O)C2O)c(=O)[nH]1 (stereo not given)	-1.1	x

Following part.
smiles	Ba CapD inh	AID504770
O=C(O)c1cc(N2C(=O)C3CC=CCC3C2=O)ccc1NCc1cccnc1 (stereo not given)	x	-0.1
C/C(=N\O)c1c(O)c2ccccc2n(C)c1=O	-0.4	0.9
CN1CCC(NC(=O)c2cccc(Oc3ccccc3)c2)CC1	0.7	-0.45
CC(C/C=N/Nc1ccc([N+](=O)[O-])cc1[N+](=O)[O-])CCc1ccccc1 (stereo not given)	-0.23	x
Cc1ccc(C)c(C(=O)CCC(=O)Nc2ccc(N3CCN(C)CC3)cc2C)c1	x	0.1
CCOC(=O)c1sc2nc(CN(C)Cc3nc4ccccc4c(=O)[nH]3)[nH]c(=O)c2c1C	x	1.5
COc1cc(NC(=O)CCNS(=O)(=O)c2cc(Br)cnc2N)cc(OC)c1	4.4	-0.6
CCOc1cc(/C=c2\sc3nc(=O)c(C)nn3c2=O)ccc1OC(C)=O	-0.53	-0.85
CN1CCN(C(=O)NCC23CC4CC(C2)CC(CNC(=O)N2CCN(C)CC2)(C4)C3)CC1	0.11	-0.6
O=C(O)C1C2C=CC(C2)C1C(=O)NCC1CCCO1 (stereo not given)	x	-0.45

Further entries follow.
smiles	Ba CapD inh	AID504770
CSc1c(CC(=O)Nc2ccccc2)n(C)c2ccccc12	0.42	2.2
CCOC(=O)C1=C(C)N=c2s/c(=C/c3c(OC)cc(OC)cc3OC)c(=O)n2C1c1ccccc1OC (stereo not given)	-0.46	x
CC1(C)CC(NC(=S)NCc2ccco2)CC(C)(C)N1	-0.025	0.55
N#CCn1c(COC(=O)CNC(=O)c2cccs2)nc2ccccc2c1=O	x	-0.15
CCOC(=O)C(C)(C)Sc1nc2c(cnn2-c2ccc(C)c(C)c2)c(=O)[nH]1	5	x
CCOc1ccc(-n2c(=S)[nH]c3c(sc(=S)n3-c3ccc(C)c(C)c3)c2=O)cc1	-0.49	x
COc1ccc(-c2nn(-c3ccccc3)cc2C#N)cc1	0.41	-1.2
O=S(=O)(Nc1ccccc1-c1ccccc1)c1cccs1	x	2.7
COc1ccc(C2CC(=O)C3=C(C2)Nc2ccccc2NC3c2coc3c(Cl)cc(Cl)cc3c2=O)cc1 (stereo not given)	-0.71	x
O=c1/c(=C\c2cccc([N+](=O)[O-])c2)sc2nc(-c3ccccc3)c(-c3ccccc3)n12	-0.23	x

Further records follow.
smiles	Ba CapD inh	AID504770
Cn1c(SCc2c(Cl)cccc2Cl)nnc1-c1ccc2ncccc2c1	1.2	x
CCC(Sc1nc2cc(OC)c(OC)cc2c2nc(C)nn12)C(=O)NCc1ccc(C)cc1 (stereo not given)	68	0.35
C=C1C(=O)OCC(C)(C)N1C(=O)OCc1ccccc1	0.59	0.55
Cc1cc(C(=O)Nn2c(-c3ccc(Br)cc3)nc3ccccc3c2=O)ccc1[N+](=O)[O-]	-0.97	x
CCOC(=O)C1=C(N)OC2=C(C(=O)CC(c3ccccc3)C2)C1c1ccccc1 (stereo not given)	-0.025	x
Cc1c(Cl)cccc1N1C(=O)CC(N2CCCc3ccccc32)C1=O (stereo not given)	-1.4	0.75
CCn1c(=N)c(C#N)cc2c(=O)n3ccccc3nc21	67	0.5
CCOC(=O)c1cc2ccccc2nc1C	-0.17	1.1
CCC(C)NC(=O)C1CCCCN1S(=O)(=O)c1ccc(F)cc1 (stereo not given)	-0.39	-0.8
Cc1cc(O)ccc1-n1c(=O)c2cc3c(=O)n(-c4ccc(O)cc4C)c(=O)c3cc2c1=O	-0.74	-0.75

New compounds follow.
smiles	Ba CapD inh	AID504770
CSc1nnc(NC(=O)c2ccc(Cl)cc2Cl)s1	1.1	-0.3
O=C(NCc1ccccc1)NCc1noc2ccccc12	0.45	1.4
O=C(Oc1ccc(Cl)cc1)c1sc2sccc2c1Cl	-0.15	-0.4
O=S(=O)(c1ccc(-c2cc(C(F)(F)F)ccn2)s1)N1CCCC1	-1	-1.3
COc1ccc(NC(=O)NCC(C)CSc2ccc(Cl)cc2)c(OC)c1 (stereo not given)	-0.19	1.6
COC(=O)Cn1c(=O)cc(N)n(Cc2ccccc2)c1=O	x	-0.6
COc1ccc(-c2csc(C)n2)cc1OC	0.33	-0.4
Cc1ccc(S(=O)(=O)NCc2cccnc2)s1	0.67	0.1
O=C(Cn1[nH]c(=O)c2ccccc2c1=O)NCCCSc1ccc(F)cc1	x	-0.45
N#CC1=C(N)N2CCSC2=NC1(C(F)(F)F)C(F)(F)F	-0.43	0.5

Grouped by structure: those above with a cyano group.
smiles	Ba CapD inh	AID504770
COc1cc(C2C(C#N)=C(SCC(N)=O)NC3=C2C(=O)CCC3)ccc1O (stereo not given)	-0.61	-0.05
CCOC(=O)CC1=C(C(=O)OCC)C2(C(=O)N(C)c3ccccc32)C(C#N)=C(N)O1 (stereo not given)	x	-0.15
CC(C)(C)S(=O)(=O)/C(C#N)=C/c1sccc1C1OCCO1	-1.3	1.3
Cc1cc(C)c(C#N)c(SC(=O)c2c(F)cccc2F)n1	1.4	x
N#CCn1c(COC(=O)CNC(=O)c2cccs2)nc2ccccc2c1=O	x	-0.15
COc1ccc(-c2nn(-c3ccccc3)cc2C#N)cc1	0.41	-1.2
CCn1c(=N)c(C#N)cc2c(=O)n3ccccc3nc21	67	0.5
N#CC1=C(N)N2CCSC2=NC1(C(F)(F)F)C(F)(F)F	-0.43	0.5

Remaining list, next part:
smiles	Ba CapD inh	AID504770
O=C(Nc1ccc(Sc2ccccc2Cl)cc1)c1ccc(F)cc1	-0.11	x
Cc1ccc(C)n1-c1ccsc1-c1cc2nccc(-c3ccc(F)cc3)n2n1	-0.73	x
COc1ccc(CCNC(=S)Nc2ccc(C)cc2C)cc1OC	-0.22	x
O=C(CCc1cccc(Cl)c1)c1cccs1	0.1	-0.1
CCCCCC(=O)N1CCN(CCn2c(CC)c3c(=O)n(-c4nc5ccccc5s4)[nH]c3cc2=O)CC1	-0.45	1.4
Cc1ccc(-c2nc3ccccc3[nH]2)cc1N	61	-0.35
COC(=O)CSc1cc(C(F)(F)F)nc2cc(C(C)(C)C)nn12	-0.15	0.5
CCn1c(CCNC(=O)c2cccs2)nnc1SCc1ccc(Cl)c(Cl)c1	0.045	-0.1
COC(=O)c1ccc(CS(C)(=O)=O)cc1	-0.21	x
Cc1nnc(Nc2ccc(S(=O)(=O)Nc3nccs3)cc2)c2ccccc12	0.99	x

(listing goes on)
smiles	Ba CapD inh	AID504770
CC1CCN(CCCNC(=O)CCC(=O)Nc2nc(-c3cc4ccccc4oc3=O)cs2)CC1	7.5	x
COc1ccc(C2CC(=O)c3cnc(Nc4ccccc4OC)nc3C2)cc1 (stereo not given)	0.23	-0.35
COCc1cc(=O)[nH]c(Sc2c(-c3ccccc3)c3ccc(Cl)cc3[nH]c2=O)n1	23	0.45
Cc1ccc(NC(=O)C2COc3ccccc3O2)cc1C (stereo not given)	-0.14	x
CCCc1cc(=O)[nH]c(SC(C)C(=O)c2ccccc2)n1 (stereo not given)	x	-0.05
COC(=O)CSc1nc(-c2ccccc2)cc(C)c1C#N	x	0.2
COc1ccc(NC(=O)c2ccc(N3CC4CC(C3)c3cccc(=O)n3C4)c(NC(=O)c3cccs3)c2)cc1OC (stereo not given)	-0.15	x
O=C1CC2(CCCCC2)Oc2ccc(O)cc21	2.3	-0.25
CC(C)Sc1nc2c(cnn2-c2ccccc2)c(=O)[nH]1	-0.01&0.25	-1.4&-0.65
c1cc(CNc2ccc(N3CCCC3)cc2)ccn1	x	0.5

Later entries.
smiles	Ba CapD inh	AID504770
O=C(CSc1ccc(-c2ccncc2)nn1)NCC1CCCO1 (stereo not given)	46	-0.55
CC1=C(C(=O)OC2CCCCC2)C(c2ccc(Cl)cc2)C2=C(CCCC2=O)N1 (stereo not given)	36	x
CC1CCN(CC(=O)N2c3ccccc3Sc3ccccc32)CC1	-0.38	x
N#Cc1c(N)nc2ccc(Cl)cc2c1-c1ccccc1	0.93	x
COc1cccc(C(=O)N(Cc2cccnc2)Cc2cc3ccccc3[nH]c2=O)c1	x	0.2
CCC(=O)NC(Cc1ccccc1)c1nc2ccccc2[nH]1 (stereo not given)	0.36	-0.25
O=S(=O)(CCNC1CCCCC1)c1ccc(Cl)cc1	0.32	x
COc1ccc(CNC(=O)c2cccc3c2C(=O)N(c2ccc(OC)cc2)C3)cc1	0.34	0.35

Screens as filed in PubChem.
